# Assay outcomes (PubChem BioAssay)
# Ecoli rRNA inh: inhibitors of bacterial rRNA selective over humanized ribosomes. E. coli WT GFP vs humanized-ribosome RFP mutants, fluorescence, 24 h; stronger effect = lower value; DMSO median 0, no signal -100. GFP signal change (wild-type ribosome), % (no concentration beside the values). hit rate 1.6% among 350,000. AID 720706;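 active = significant combined selectivity score with lowered wild-type GFP, culture density cut under 30%, mutant RFP and density less affected; inactive = any of these conditions unmet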; note: one replicate is shown; some compounds called inactive have numbers as strong as hits
# Calb FLC: C. albicans growth modulation with fluconazole; C. albicans CaCi-2 (fluconazole-resistant clinical isolate) + fluconazole, Alamar Blue growth, 48 h; AID 1979; hit rate 0.57% among 300,000; growth inhibition, % (no concentration beside the values);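 active = most replicates above 75%; inconclusive = exactly half above 75%; inactive = most below 75%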;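 note: all wells also contain fluconazole at 8 µg/ml as a sub-toxic cotreatment; 0% = median of DMSO wells and 100% = median of geldanamycin control wells; wells of about 8 µL received 7.5 nL stock; the first replicate is given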
# T cruzi repl: T. cruzi replication inhibition; T. cruzi beta-gal in NIH3T3, luminescence, 90 h; inhibition, % (no concentration beside the values); hit rate 1.4% among 300,000; AID 1885;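 active = mean inhibition across valid replicates above about 55%, limit read from the data; inconclusive = mean below that limit but half or more replicates reach it; inactive = mean below it, under half of replicates reach it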;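 note: signal also drops with host cell toxicity which is not excluded here; 0% = plate median of DMSO wells and 100% = zero luminescence signal; higher percent means less beta-gal luminescence so fewer parasites; stock transfer was 50 nL into about 50 µL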
# MLL AF4-AF9 inh: inhibitors of human MLL-AF4/AF9 interaction. AlphaScreen, biotin-AF4 peptide binding to FLAG-AF9. inhibition, % at 10 µM. hit rate 0.47% among 350,000;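 active = every replicate reaching a set inhibition limit, whatever the replicate mean, cut at about 25% in these data; inconclusive = mean inhibition reaches that limit but some replicates miss it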;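 note: 0% = plate neutral control median and 100% = total signal loss; the record names both 10 and 1 µM as test concentration; the first replicate is given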
# Target sequence (P42568 whole entry, looked up): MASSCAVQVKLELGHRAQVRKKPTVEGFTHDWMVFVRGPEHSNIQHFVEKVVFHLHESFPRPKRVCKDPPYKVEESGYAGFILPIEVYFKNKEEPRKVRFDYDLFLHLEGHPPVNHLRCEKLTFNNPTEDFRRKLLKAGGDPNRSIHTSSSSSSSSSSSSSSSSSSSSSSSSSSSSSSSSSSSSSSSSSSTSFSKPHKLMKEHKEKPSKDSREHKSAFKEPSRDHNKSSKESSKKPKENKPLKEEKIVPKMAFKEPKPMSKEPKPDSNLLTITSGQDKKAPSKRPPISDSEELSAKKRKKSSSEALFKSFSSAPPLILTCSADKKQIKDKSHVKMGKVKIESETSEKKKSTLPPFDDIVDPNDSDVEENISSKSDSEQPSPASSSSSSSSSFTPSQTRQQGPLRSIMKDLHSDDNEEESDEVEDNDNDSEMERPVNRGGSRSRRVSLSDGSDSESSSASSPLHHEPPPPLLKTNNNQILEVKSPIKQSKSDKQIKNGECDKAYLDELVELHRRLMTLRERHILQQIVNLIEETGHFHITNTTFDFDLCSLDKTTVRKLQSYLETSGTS
# RanGTP-Impb inh: inhibitors of RanGTP-importin-beta interaction, primary screen, biochemical, FRET, CFP-Ran, YFP-importin-beta, homogeneous | cell-free CFP-Ran/YFP-importin-beta FRET ratio | inhibition, % (no concentration beside the values) | hit rate 1.1% among 300,000 | AID 2216;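 active = most replicates above 15%; inconclusive = exactly half above 15%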;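 note: 0% = DMSO wells and 100% = Ran loaded with GDP instead of GTP; wells of about 40 µL received 100 nL stock; the first replicate is given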
# Beta apoptosis: blocks beta cell apoptosis. INS-1E cytokine-induced death, ATP luminescence, 48 h; percent of positive-control rescue, neutral wells zero. protection from apoptosis, % (no concentration beside the values). hit rate 0.8% among 300,000. AID 435005;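 active = all replicates at 75% or more, or half of them and the mean; inconclusive = half reach 75% but not the mean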;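 note: 0% = cytokine-treated negative control wells and 100% = positive control rescue; higher means more ATP so stronger rescue from cytokine killing; wells of about 40 µL received 100 nL stock; the first replicate is given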
# Vif A3G: inhibitors of Vif binding to APOBEC3G peptide, primary screen, biochemical, TR-FRET, GST-Vif 1-94, biotin-A3G peptide, dose response retest (AID 1117319) | inhibition, %, or IC50 in µM where a hit was titrated | hit rate 0.57% among 260,000 | TR-FRET GST-Vif / biotin-A3G peptide binding; higher % means a stronger effect; test concentration not given here; strong numbers were not always called active;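 active = above the screen mean plus three standard deviations and confirmed in dose response; inconclusive = results disagree or hit not tested in dose response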;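 note: Vif residues 1-94 fused to GST binding biotinylated APOBEC3G peptide 110-148; 0% = full assay without inhibitor and 100% = GST in place of GST-Vif; retest series ran down from 100 µM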
# Bfl-1 A1 inh: inhibitors of the anti-apoptotic protein A1, read as caspase activation; AID 2462; MEF A1-2A-BIM cells, Caspase-Glo 3/7 luminescence, 3 h; percent of clofoctol response, vehicle zero; hit rate 0.066% among 330,000; caspase activation, % (test concentration not listed);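 active = over half of replicate activation scores above 10%, or exactly half above 10 with the replicate mean above 10; inconclusive = replicate mean below 10 yet half the replicates above 10; inactive = over half of replicates below 10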;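 note: wells of about 30 µL received 50 nL stock; many hits fall short of the cut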
# Ecoli rRNA inh OD600: recorded beside Ecoli rRNA inh, whose call it bears; OD600 change, %; measured here: OD600 growth;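 optical density of the mix in the first replicate; 0 = DMSO median and -100 = no signal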
# Ecoli rRNA inh RFP: recorded beside Ecoli rRNA inh, whose call it bears; RFP signal change, %; measured here: RFP humanized mutant strains;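 first replicate; 0 = DMSO median and -100 = no signal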
# * marks the source's active call; other numbers are inactive results; ? = inconclusive; . = not tested or not shown; & = joins results of further samples. Some of the compounds tested, so the mix of outcomes need not match the whole.
SMILES,Ecoli rRNA inh,Ecoli rRNA inh OD600,Ecoli rRNA inh RFP,Calb FLC,T cruzi repl,MLL AF4-AF9 inh,RanGTP-Impb inh,Beta apoptosis,Vif A3G,Bfl-1 A1 inh
COc1ccc(CCN2CC3=C(C2=O)C(c2ccccc2)NC(=O)N3C)cc1OC (stereo unspecified),.,.,.,?,-5,.,2.6,2,3%,-0.8
O=S(=O)(c1ccc(Cl)cc1)N1CCC2(CC1)CO2,6,-3,1.3,-4,8,-1.2,-0.6,-13,1%,-0.2
O=C(CN(Cc1ccccc1)C(=O)c1cccc([N+](=O)[O-])c1)Nc1c(Cl)cc(Cl)cc1Cl,5,6,-1.9,10,13,-2.6,3.5,17,19%,0.0
O=C(C[n+]1ccccc1)N/N=C/c1cc(Br)cc(Br)c1O,.,.,.,14,-12,.,-2.9,-18,-9%,-0.3
CCOC(=O)Oc1ccc2oc(=O)cc(C)c2c1,.,.,.,0,-4,.,-59,1,20%,-1.0
NC(=O)c1ccc(NCc2ccco2)c([N+](=O)[O-])c1,.,.,.,15,-16,.,5.5,-4,4%,0.1
CC1CCCN(C(=O)c2cc(F)c(F)cc2Cl)C1 (stereo unspecified),14,6,-0.6,-15,-3,-79,-2.1,1,-7%,-0.7
O=C(O)c1ccccc1P(=O)(c1ccccc1)c1ccccc1,10,-3,0.8,3,6,-0.8,16*,-1,-6%,-0.5
C(/CCc1ccccc1)=N\n1cnnc1,.,.,.,-12,0,.,?,-4,14%,0.2
CCn1c(SCC(=O)N2CCCC(C)C2)nc2c1c(=O)n(C)c(=O)n2C (stereo unspecified),1,-1,-2.2,17,-1,-3.4,2.9,-6,-9%,0.3
COc1ccc(S(=O)(=O)N2CCN(c3ccccc3OC)CC2)cc1,-19,-21,-4.0,-2,3,-4.4,1.0,.,-10%,-1.3
Cc1nn(-c2ccccc2)c(C)c1/C=N/NC(=O)c1cc(-c2ccc(Br)s2)[nH]n1,.,.,.,51,5,.,-3.9,31,2%,-0.7
Fc1ccc(Nc2nc(N3CCOCC3)nc(N3CCOCC3)n2)cc1Cl,-1,-3,-0.9,11,30,0.3,-1.9,-1,.,0.8
C/C(=C\C(=O)c1ccc(Br)cc1)Nc1cccc(Cl)c1,.,.,.,-37,-6,.,-1.9,4,-3%,-0.6
O=C(CCN1C(=O)/C(=C/c2ccc3c(c2)OCO3)SC1=S)NNC(=O)c1cccnc1,16,15,0.8,-9,0,-1.9,-0.6,7,23%,-1.4
COc1ccc2cnn(-c3ccc(OC(F)(F)Cl)cc3)c(=O)c2c1OC,7,2,0.8,-3,12,2.0,6.2,1,.,0.9
NS(=O)(=O)c1ccc(Nc2c([N+](=O)[O-])cncc2[N+](=O)[O-])cc1,-37*,-5.5*,0.8*,1,36,0.4,-5.2,2,-3%,0.2
CC1(C)CC(=O)C2=C(C1)Nc1ncnn1C2c1cccs1 (stereo unspecified),16,12,2.6,1,-1,-2.0,-1.8,-1,.,0.8
CC(C(=O)N1CCN(c2ccccc2)CC1)c1ccc([N+](=O)[O-])cc1 (stereo unspecified),6,8,1.8,-2,-1,2.8,5.3,4,.,1.7
Cc1cccc(NS(=O)(=O)c2ccc3[nH]c(=O)oc3c2)c1C,1,-15,0.3,.,.,-1.2,.,-8,4%,0.5
N#C/C(=C\c1ccc(/C=C(/C#N)c2nn(CCO)c(N)c2C#N)cc1)c1nn(CCO)c(N)c1C#N,.,.,.,-5,-3,.,-35,-1,17%,0.1
COc1cc(C(=O)OCC(=O)N2CC(C)OC(C)C2)cc(OC)c1OC (stereo unspecified),13,20,0.9,1,1,0.8,4.7,2,-2%,1.0
C[C@@H]1CN([C@@H](C)CO)C(=O)c2cccc(NC(=O)C3CCCCC3)c2O[C@@H]1CN(C)C(=O)NC1CCCCC1,-2&1,-2&-3,0.0&-9.4,.,.,-3.8&1.7,.,-1,.,1.0
O=C(NCCC1=CCCCC1)c1cc(COc2ccc(F)cc2Cl)on1,-5,2,-1.5,0,4,-3.7,4.1,0,.,-0.8
CCOc1ccc(S(=O)(=O)N2CCC(C(=O)NCc3cccnc3)CC2)cc1,1,-2,-1.0,-5,-3,-0.6,1.4,3,-6%,0.4

# The results go on.
SMILES,Ecoli rRNA inh,Ecoli rRNA inh OD600,Ecoli rRNA inh RFP,Calb FLC,T cruzi repl,MLL AF4-AF9 inh,RanGTP-Impb inh,Beta apoptosis,Vif A3G,Bfl-1 A1 inh
N#CCCN(C1CCCCC1)S(=O)(=O)c1cccc2nsnc12,.,.,.,?,-6,.,6.7,-3,6%,1.2
Oc1cccc(-c2nc3ccccc3s2)c1,.,.,.,-23,-8,.,1.3,.,8%,-7.7
CCOC(=O)NC1(C(F)(F)F)NC(=O)N(c2cccc(C(F)(F)F)c2)C1=O (stereo unspecified),4,-9,0.3,-8,-23,3.0,5.5,-2,-8%,-0.2
CC#CCN1c2ccccc2[C@]23C[C@@H](C(=O)OC)N(C(=O)C4CCC4)C2=NC(C(=O)OC)=C(C(=O)OC)[C@H]13,0,3,-7.0,5,-5,7.3,2.3,3,-8%,?
COc1ccc(N2CCN(CCCNC(=O)Cn3c(=O)c4cccn4c4ccccc43)CC2)cc1,4,2,0.9,2,9,-6.7,-0.6,4,?,-0.2
COCc1nnc(NC(=O)c2cccs2)s1,.,.,.,-10,-9,.,-0.1,-1,-2%,-0.8
O=C(O)CCSc1nc2ccccc2s1,.,.,.,24,-10,-3.9,7.0,0,5%,-2.7
COc1cccc(C2=N/C(=C\N(C)C)C(=O)O2)c1,.,.,.,-1,3,.,-2.4,3,-5%,0.3
CC(NC(=O)c1nn(C)c(=O)c2ccccc12)c1ccc(F)cc1 (stereo unspecified),.,.,.,-2,2,.,1.3,-2,13%,1.5
Cc1csc(NC(=O)CSc2nc(=O)[nH]c3c2CCCC3)n1,-2,-3,-2.5,-8,5,-2.0,0.5,-5,.,0.7
CC1SCC(NC(=O)c2cccc(Cl)c2)CS1 (stereo unspecified),-11,-15,-1.6,4,-2,-2.7,4.8,-4,.,0.3
Cc1ncc(S(=O)(=O)c2ccccc2)c(-c2ccc(Cl)cc2Cl)n1,.,.,.,0,23,.,3.8,3,2%,0.2
O=C(CN1CCC(n2nnc3cc(C(F)(F)F)ccc32)CC1)Nc1ccc2c(c1)OCCO2,.,.,.,6,12,.,2.6,-2,13%,-0.5
Cc1ccccc1NC(=O)C1CC(Cl)=CCC1C(=O)O (stereo unspecified),.,.,.,-35,-2,.,-1.5,0,12%,0.8
CN([C@@H](Cc1ccc(OS(=O)(=O)c2cccc3cnccc23)cc1)C(=O)N1CCN(c2ccccc2)CC1)S(=O)(=O)c1cccc2cnccc12,.,.,.,7,57*,.,3.1,.,32%,0.9
COc1ccccc1N1CCN(C(=O)c2ccc(Cl)c(S(=O)(=O)NCc3ccco3)c2)CC1,.,.,.,-5,-2,.,?,-4,13%,0.3
COc1ccc(NC(=O)CSc2ncccc2C(=O)OC(C)C)cc1OC,.,.,.,-13,-64,.,?,11,-1%,-1.1
O=C(Cc1cccs1)N/N=C/C(Br)=C/c1ccccc1,.,.,.,-4,-4,.,-0.5,-8,0%,0.9
COc1ccc(-n2nnnc2CNC(=O)C2CC(=O)N(c3ccc(Cl)cc3)C2)cc1 (stereo unspecified),-2,-4,-2.1,2,-9,-16,-2.7,0,-1%,-0.9
O=C(CSc1ncnc2sccc12)N1CCCCC1,-3,0,0.1,.,.,-8.8,.,-2,-5%,2.2
Cn1c(SCC(=O)Nc2ccc(Cl)cn2)nnc1C1CC1,18,19,3.6,2,-22,-2.4,-3.9,-2,.,0.0
CCCCCCCCNC(CO)(CO)CO,20,5,-0.7,-22,6,1.0,-1.2,.,-5%,-0.2
CCn1c(=O)c(NC(=O)c2ccccc2)c2n(c1=S)CCCCC2,.,.,.,-8,.,.,4.2,1,-2%,0.0
CN(C)CCNC(=O)c1ccc(Sc2ccc(Br)cc2)c([N+](=O)[O-])c1,-27,-39,-5.6,-1,77*,20,2.4,1,8%,0.5
N#Cc1c(-c2ccc(Br)cc2)nc2n(c1=O)CCCS2,.,.,.,-7,-26,.,?,-4,-5%,1.5

# Going on with the list.
SMILES,Ecoli rRNA inh,Ecoli rRNA inh OD600,Ecoli rRNA inh RFP,Calb FLC,T cruzi repl,MLL AF4-AF9 inh,RanGTP-Impb inh,Beta apoptosis,Vif A3G,Bfl-1 A1 inh
CCC(=O)N(CCc1ccccc1C)Cc1cc2cc3c(cc2[nH]c1=O)OCO3,.,.,.,-1,?,.,4.0,-1,10%,0.1
COc1cc2nc(N3CCN(C(=O)C4CCCO4)CC3)nc(N)c2cc1OC (stereo unspecified),-4&-2,2&17,-3.6&-0.1,.,-3&2,-17&-0.7&0.2,?,-4,2%,-2.2&-4.6
CC(C)(C)NC(=O)C(c1ccncc1)N(C(=O)c1csnn1)C1CC1 (stereo unspecified),.,.,.,10,-7,.,2.8,-1,1%,0.1
CC1=NC(=O)C(N=Nc2ccccc2C(=O)O)N1c1ccccc1 (stereo unspecified),-62,-77,-23,40,-9,-1.2,3.5,.,11%,.
CCNC(=O)N(C)c1nncnc1C(=O)NC,9,6,-8.7,0,-4,.,-3.6,.,-2%,.
COc1ccc(NC(=O)CN(C)C(=O)c2cc(S(=O)(=O)N(C)C)ccc2N2CCCC2)cc1,7,6,2.1,-5,7,0.9,-0.4,.,2%,-0.1
Cc1ccc(C(=O)N/C(=C/c2ccc(Cl)cc2)C(=O)Nc2cccc(C(=O)O)c2)cc1,.,.,.,-2,-7,.,5.6,2,.,0.3
CC(/C=C/c1ccccc1)=N\Nc1ccccc1[N+](=O)[O-],4,2,-12,12,13,-2.9,2.5,6,21%,0.1
Cc1ccc(S(=O)(=O)C2CCOC2=O)cc1 (stereo unspecified),.,.,.,-6,5,.,-1.4,-2,1%,0.4
COCCn1c(SCC(=O)Nc2ccc(Cl)cn2)nnc1-c1ccncc1,8,2,-18,-23,.,-1.7,.,2,-9%,0.1
Cc1cc(C(=O)OCC(=O)N(C)c2c(N)n(Cc3ccccc3)c(=O)[nH]c2=O)c(C)n1-c1ccccc1,6,13,-0.6,.,.,5.6,.,-1,.,0.5
Cc1ccc(C2CC(=O)N3CN(c4ccc(Br)cc4)CSC3=C2C#N)o1 (stereo unspecified),.,.,.,-14,-11,.,3.9,0,?,1.5
COc1cc2sc(-c3ccccc3OC)c(-c3ccc(O)cc3)c2cc1OC,-5,-28,30,.,.,-21,.,-10,.,1.0
CCn1c(SCC(=O)N2CCN(c3ccc(F)cc3)CC2)nc2ccccc2c1=O,.,.,.,15,20,.,7.8,-1,-8%,0.5
C1CCCN(CCCCN2CCCCCC2)CC1,.,.,.,-3,-9,.,3.5,-7,11%,0.0
